Screens from PubChem BioAssay.
A1 inh: inhibitors of the anti-apoptotic protein A1, read as caspase activation. caspase activation, % (no concentration beside the values). MEF A1-2A-BIM cells, Caspase-Glo 3/7 luminescence, 3 h; percent of clofoctol response, vehicle zero. actives 0.066% (n = 330,000). AID 2462;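 active = over half of replicate activation scores above 10%, or exactly half above 10 with the replicate mean above 10; inconclusive = replicate mean below 10 yet half the replicates above 10; inactive = over half of replicates below 10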;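 also: wells of about 30 µL received 50 nL stock; many hits fall short of the cut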
E coli growth: blocks Escherichia coli growth; OD600, 23 h; stronger effect = lower value; OD600 absorbance (concentration not given with the values); actives 0.21% (n = 330,000); AID 1053175;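 active = OD600 absorbance below the run mean of sample wells minus 3.6 SD, in any replicate, cut at about 0.56 in these data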;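 also: stock transfer was 300 nL into about 60 µL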
Vif A3G: HIV-1 Vif–A3G interaction blockers – biochemical, TR-FRET, GST-Vif 1-94, biotin-A3G peptide, dose response retest, primary screen (AID 1117319); TR-FRET GST-Vif / biotin-A3G peptide binding; higher % means a stronger effect; test concentration not given here; strong numbers were not always called active; inhibition, %, or IC50 in µM where a hit was titrated; actives 0.57% (n = 260,000);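 active = above the screen mean plus three standard deviations and confirmed in dose response; inconclusive = results disagree or hit not tested in dose response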;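 also: Vif residues 1-94 fused to GST binding biotinylated APOBEC3G peptide 110-148; 0% = full assay without inhibitor and 100% = GST in place of GST-Vif; retest series ran down from 100 µM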
LANA-H2A inh: blocks KSHV LANA binding to histone H2A/H2B | actives 0.6% (n = 320,000) | inhibition, % (test concentration not listed) | cell-free LANA-H2A/H2B peptide, fluorescence polarization | AID 2629; in the data active = inhibition mostly above about 10%, no sharp cut-off; inactive = mostly below about 6.7%;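 also: stock transfer was 7.5 nL into about 10 µL; 0% = median of vehicle wells and 100% = median of positive control wells; one replicate is shown; the record names a cut of 25% in any replicate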
Target sequence (Q9QR71 whole entry, looked up): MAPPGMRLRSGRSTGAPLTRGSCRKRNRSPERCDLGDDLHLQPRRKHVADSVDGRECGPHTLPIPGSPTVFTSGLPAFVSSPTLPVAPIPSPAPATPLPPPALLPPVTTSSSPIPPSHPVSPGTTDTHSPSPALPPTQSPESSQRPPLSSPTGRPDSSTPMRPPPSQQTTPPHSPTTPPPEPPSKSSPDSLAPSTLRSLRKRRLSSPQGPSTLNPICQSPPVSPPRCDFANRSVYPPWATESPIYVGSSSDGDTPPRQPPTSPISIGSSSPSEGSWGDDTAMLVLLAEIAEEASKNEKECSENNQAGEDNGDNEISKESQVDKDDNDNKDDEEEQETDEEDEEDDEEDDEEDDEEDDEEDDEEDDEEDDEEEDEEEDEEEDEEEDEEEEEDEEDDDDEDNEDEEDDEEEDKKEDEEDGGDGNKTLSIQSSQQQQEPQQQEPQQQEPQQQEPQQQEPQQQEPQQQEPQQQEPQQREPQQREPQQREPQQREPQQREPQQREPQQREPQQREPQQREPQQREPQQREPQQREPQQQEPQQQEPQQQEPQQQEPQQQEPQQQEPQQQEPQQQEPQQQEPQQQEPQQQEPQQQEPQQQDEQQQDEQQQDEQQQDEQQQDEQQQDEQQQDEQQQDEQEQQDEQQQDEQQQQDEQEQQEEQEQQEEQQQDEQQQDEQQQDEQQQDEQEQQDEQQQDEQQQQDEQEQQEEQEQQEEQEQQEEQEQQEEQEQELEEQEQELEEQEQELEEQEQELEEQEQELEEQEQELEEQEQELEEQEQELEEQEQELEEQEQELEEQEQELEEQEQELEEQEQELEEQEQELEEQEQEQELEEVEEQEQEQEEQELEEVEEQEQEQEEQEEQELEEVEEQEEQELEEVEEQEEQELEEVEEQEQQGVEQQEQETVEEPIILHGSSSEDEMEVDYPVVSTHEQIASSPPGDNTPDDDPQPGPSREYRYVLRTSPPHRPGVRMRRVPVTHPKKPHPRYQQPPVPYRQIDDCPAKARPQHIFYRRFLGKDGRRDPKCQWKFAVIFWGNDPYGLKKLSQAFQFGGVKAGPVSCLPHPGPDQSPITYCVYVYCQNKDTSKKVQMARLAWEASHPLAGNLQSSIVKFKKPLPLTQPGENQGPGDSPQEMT
UCH37 DUB inh: blocks the human deubiquitinase UCH37; Q9Y5K5; purified proteasome/UCH37, Ub-AMC cleavage fluorescence; inhibition, % (test concentration not listed); actives 0.33% (n = 330,000); AID 588478;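 active = mean of two replicates above 20%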;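 also: 0% = compound-free wells with enzyme and 100% = wells lacking proteasome; stock transfer was 100 nL into about 20 µL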
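Material: human UCH37 enzyme supplied as purified proteasome complex / Amount: 0.15 nM proteasome as dispensed / Buffer or medium: pH 7.4 Tris-HCl (50 mM) with ovalbumin, ATP-MgCl2, DTT / Times: preincubation 30 min, reaction 25 min, room temperature / Technique: AMC fluorescence from Ub-AMC cleavage, excitation 355 nm, emission 460 nm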
HNF4A DNA FP: change in binding of human HNF4 alpha to DNA | HNF4a-FITC DNA binding, fluorescence polarization, 1 h | activity change, % at 10 µM | actives 0.3% (n = 360,000); in the data active = activity change above about 30%, passing the limit was not always enough;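 also: controls were the assay level and a saturating level of protein; the project sought stronger binding though the title names inhibitors; some compounds called inactive have numbers as strong as hits; positive values seem to mean higher polarization but the record does not say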
Beta2AR agonist: agonists of human beta-2 adrenergic receptor inducing internalization | Am2.2-beta2AR cells, FAP receptor internalization, flow cytometry; reference of the scale not given here | P07550 | actives 0.43% (n = 340,000) | response, % (no concentration beside the values);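 active = response above a set limit, near 3 SD of response in nonfluorescent compounds, cut at about 42% in these data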;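 also: stock transfer was 100 nL into about 11 µL; a reference agonist was the positive control; negative values mostly stem from fluorescent compounds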
* marks the source's active call; other numbers are inactive results; ? = inconclusive; . = no result given. Compounds as they come, and some 2.1% of all compounds hit somewhere here.

SMILES	A1 inh	E coli growth	Vif A3G	LANA-H2A inh	UCH37 DUB inh	HNF4A DNA FP	Beta2AR agonist
COc1ccccc1NC(=O)CSc1nnc(-c2ccc(NC(C)=O)cc2)n1C	0.4	0.77	9%	0.5	4.9	-0.9	-5
Cc1ccc(F)cc1NC(=O)c1ccc(OCC2CCCO2)cc1 (stereo unspecified)	-6.0	0.62	.	-2.9	-0.6	5.1	-4
Oc1ccc(Cl)cc1CNC1CCCCC1	.	0.64	-5%	.	1.9	-0.1	4
CC(C)CN1CC(C(=O)O)CC1=O (stereo unspecified)	0.0	0.71	-4%	-1.4	4.7	5.5	1
Cc1ccc(N(C(=O)c2snc(C(N)=O)c2N)C(C(=O)NCCC(C)C)c2ccco2)cc1 (stereo unspecified)	0.5	0.68	4%	0.1	-18	2.7	-5
COC(=O)C1(C)NC(c2ccccc2F)C2C(=O)N(c3ccccc3)C(=O)C21 (stereo unspecified)	-0.1	0.67	.	-5.7	1.7	2.0	-1
C/C(=N\NC(=O)c1cc(-c2ccc(Cl)s2)[nH]n1)c1ccncc1	0.3	.	.	0.4	.	-0.5	0
COc1ccccc1N(Cc1cc2ccc(C)cc2[nH]c1=O)C(C)=O	0.7	0.66	.	8.2	-2.2	2.0	3
COCCN(Cc1nc(-c2ccc(-c3ccccc3)cc2)oc1C)C(C)C	-1.2	0.66	0%	-7.6	-9.1	2.6	6
C/C(=N\NC(=O)c1ccc(C)cc1C)c1ccc(-n2ccnc2)cc1	-0.4	.	10%	2.5	.	1.4	-2
CC1(C)CC(=O)C2=C(C1)N(c1ncn[nH]1)C(N)=C(C#N)C2c1ccccc1 (stereo unspecified)	0.0	0.66	6%	-1.2	4.4	2.3	-1
COc1ccc(CCNC(=O)CN(c2ccc(OC)c(OC)c2)S(=O)(=O)c2ccc(C)cc2)cc1	-0.7	0.7	.	4.5	4.9	5.4	5
COc1ccc(/C=C/c2ccccc2)cc1[C@H]1[C@@H]2C=CCC[C@@]2(C)C(=O)N1Cc1ccccc1	1.3	.	-4%	0.9	0.6	3.1	20
O=C(Nc1cccnc1Oc1ncnc2cc(Cl)ccc12)c1ccc(F)cc1	0.9	0.64	2%	2.1	3.3	.	.
O=C(CS(=O)(=O)c1cn(CC(=O)N2CCOCC2)c2ccccc12)Nc1ccccc1F	-2.4	0.71	.	-2.5	2.4	2.3	4
CC(C)(C)c1ccc(C(=O)Nc2ccccc2Cl)cc1	-8.0	0.66	6%	5.7	1.6	1.7	11
Cc1ccc(C(=O)CSc2nnc(C)s2)cc1	-2.5	0.59	-4%	.	3.0	0.4	0
COc1ccc(C)cc1C1=CC(=O)C[C@H](c2ccc(F)cc2)C1	0.1	.	.	1.1	1.9	4.1	-1
O=C(NCCCCc1ccccc1)c1cccc(NC(=O)C2CCCCC2)c1	.	.	-3%	.	.	1.9	8
O=C(Cn1nnc2ccccc2c1=O)N1CCOCC1	-0.2	0.71	-5%	2.7	2.9	-2.3	-4

The list goes on; it opens with the three that closed the last part.
SMILES	A1 inh	E coli growth	Vif A3G	LANA-H2A inh	UCH37 DUB inh	HNF4A DNA FP	Beta2AR agonist
COc1ccc(C)cc1C1=CC(=O)C[C@H](c2ccc(F)cc2)C1	0.1	.	.	1.1	1.9	4.1	-1
O=C(NCCCCc1ccccc1)c1cccc(NC(=O)C2CCCCC2)c1	.	.	-3%	.	.	1.9	8
O=C(Cn1nnc2ccccc2c1=O)N1CCOCC1	-0.2	0.71	-5%	2.7	2.9	-2.3	-4
COc1cccc(NC(=O)Cc2ccc3ccccc3c2)c1	-0.5	0.66	.	-5.4	1.6	-4.0	-2
CCc1nnc(NC=C2C(=O)OC(C)(C)OC2=O)s1	-0.4	0.63	3%	0.5	1.3	2.0	0
CC1=C(C(=O)OCc2ccccc2)C(c2ccccc2)NC(=O)N1CCCCCC(=O)O (stereo unspecified)	0.9	0.62	1%	-3.8	2.9	-0.4	0
COc1ccc(CN(C)CC(=O)Nc2sc3c(c2C#N)CCC3)c(OC)c1	-2.2	0.65	-4%	1.3	3.4	1.6	1
Cn1cc(CN2CCC(n3nccc3NC(=O)c3ccccc3Cl)CC2)cn1	-0.7	0.64	.	2.0	4.9	2.5	0
O=S(=O)(Cc1ccc(Cl)cc1)N1CCN(Cc2ccccc2)CC1	-0.4	0.75	-7%	-0.7	5.0	2.5	4
O=C(N[C@@H]1C[C@H]2CC[C@@H]1C2)c1ccco1	1.4	0.72	.	12	1.4	1.8	1
COc1c(OC(C)=O)ccc(/C=N\NC(=O)c2ccc(Br)cc2)c1[N+](=O)[O-]	-0.2	.	15%	3.3	.	-2.7	12
O=C(COc1cccc(F)c1)Nc1ccc2[nH]c(=O)[nH]c2c1	-4.2	0.68	7%	-0.1	1.7	14	8
Cc1nn2c(COc3ccc(NC(=O)C(C)C)cc3)nnc2c2ccccc12	0.1	0.69	.	2.0	6.4	0.3	-11
COCc1cc(C)nc(SCC(=O)Nc2ccc3c(c2)OCCO3)c1C#N	0.8	0.7	.	-1.9	6.2	-0.9	7
CC(=O)c1c(C)[nH]c(C(=O)Nc2cc(S(=O)(=O)N(C)C)ccc2C)c1C	0.8	0.69	2%	-1.3	0.7	-4.1	-9
CC(=O)NC(Cc1ccc(O)cc1)C(=O)NN (stereo unspecified)	0.8	0.69	-9%	-1.8	0.1	1.3	0
O=C(CN1C(=O)c2ccccc2C1=O)Nc1ccccc1F	-0.5	0.69	0%	-2.3	4.9	2.1	7
CCn1ncc([C@@H]2C[C@H]3CN(Cc4ccccc4C)C(=O)[C@]34CCCN24)c1C	-2.1	0.69	-3%	-2.9	-1.7	12	-12
Cc1ccnn1CC(=O)N/N=C/c1cccs1	-0.2	.	.	4.6	.	3.6	-1
COc1ccccc1N(C)S(=O)(=O)c1ccc(C(=O)NCC2CCCCC2)cc1	1.2	0.67	7%	-4.2	-0.9	0.6	-7
O=c1c2cc([N+](=O)[O-])ccc2nc2n1CCC2	-1.4	0.64	-1%	-2.5	8.1	0.3	2
CCOc1ccccc1NC(=S)NC1CCCCC1	-0.6	0.72	.	-0.7	2.7	-3.8	3
CC(Oc1ccc(F)cc1)C(=O)Nc1nc(-c2ccccn2)cs1 (stereo unspecified)	-0.5	0.71	0%	1.4	3.5	0.3	0

Four entries out of the list above, ordered by the number in Vif A3G, lowest first:
mol | E coli growth | Vif A3G | LANA-H2A inh | UCH37 DUB inh | HNF4A DNA FP | Beta2AR agonist
COc1ccc(CN(C)CC(=O)Nc2sc3c(c2C#N)CCC3)c(OC)c1 | 0.65 | -4% | 1.3 | 3.4 | 1.6 | 1
CCn1ncc([C@@H]2C[C@H]3CN(Cc4ccccc4C)C(=O)[C@]34CCCN24)c1C | 0.69 | -3% | -2.9 | -1.7 | 12 | -12
O=c1c2cc([N+](=O)[O-])ccc2nc2n1CCC2 | 0.64 | -1% | -2.5 | 8.1 | 0.3 | 2
O=C(CN1C(=O)c2ccccc2C1=O)Nc1ccccc1F | 0.69 | 0% | -2.3 | 4.9 | 2.1 | 7

(next part)
SMILES	A1 inh	E coli growth	Vif A3G	LANA-H2A inh	UCH37 DUB inh	HNF4A DNA FP	Beta2AR agonist
COC(=O)c1sccc1NC(=O)c1cc(OC)cc(OC)c1	-0.2	0.73	-67%	2.4	0.5	-0.7	-1
COc1ccc(C(CNC(=O)c2ccc(OCc3ccccc3)cc2)N2CCOCC2)cc1 (stereo unspecified)	-1.1	0.64	-3%	2.5	1.9	2.7	4
O=C(O)CN(C1CCCCC1)S(=O)(=O)c1ccc(F)cc1	0.8	0.68	4%	-0.1	0.1	-5.2	-2
CC(OC(=O)c1ccc(NC(=O)CC#N)cc1)C(=O)NCCC1=CCCCC1 (stereo unspecified)	-0.2	0.68	9%	-2.3	15	-1.8	3
CCCSc1cc(N2CCN(C)CC2)nc(-c2ccc(OC)cc2)n1	1.0	0.66	1%	6.2	0.0	1.6	10
Cc1ccsc1/C=C(\CC(=O)O)c1nc2ccccc2o1	1.4	0.68	.	5.1	14	2.5	-3
C(#CCN1CCC(Cc2ccccc2)CC1)COCCOCc1ccccc1	0.6	0.67	-7%	-2.2	5.8	-0.7	-3
CC(=O)Nc1ccc(S(=O)(=O)N2CCN=C2SCc2ccc([N+](=O)[O-])cc2)cc1	-0.6	0.7	-2%	-1.2	2.8	0.8	13
O=C(CN(Cc1ccccc1Cl)C(=O)CN1C(=O)CSc2ccccc21)NC1CC1	-0.1	0.64	.	-0.5	1.7	-0.2	1
Cn1c(=O)c(=O)n(C)c2cc(S(=O)(=O)CCC(=O)Nc3cccc(C(F)(F)F)c3)ccc21	0.4	0.68	.	-2.6	-20	-2.4	-1
Cc1cccc(-c2nnc(-c3ccccc3)o2)c1	1.0	0.74	1%	-7.5	2.4	0.6	2
CCC(=O)N1c2ccc(S(=O)(=O)NC3CCCCC3)cc2CC1C (stereo unspecified)	-0.2	0.69	.	0.4	2.0	-0.3	-8
Cn1cccc1C(=O)OCC(=O)c1ccc(Br)s1	-11	0.69	-22%	-3.2	3.6	8.7	1
CCC(C)(C)NC(=O)C(c1ccncc1)N(C(=O)c1sc(C)nc1C)c1ccc(C)cc1 (stereo unspecified)	2.0	0.71	8%	4.4	3.5	-4.5	-3
C=CCNC(=O)c1ccccc1NC(=O)COc1ccccc1	?	0.7	13%	-0.7	5.8	-0.2	-19
Oc1ccc(/C=N/NC(=S)Nc2cccnc2)cc1	-3.0	.	23%	-1.6	.	0.6	-8
Cc1ccc(N(C)S(=O)(=O)c2cc3c(cc2C)NC(=O)CO3)cc1	0.3	0.8	.	-2.5	6.0	-0.1	22
COc1ccccc1CCNS(=O)(=O)CCNC(=O)c1ccccc1	0.3	0.69	-6%	8.8	-0.3	1.9	-10
CC(C)CCNC(=O)c1cc2c(=O)[nH]c3ccccc3c2s1	0.9	0.67	-20%	2.5	-49	-3.5	-3
O=S(=O)(Nc1cc(Cl)cc(Cl)c1)N1CCOCC1	1.6	0.69	2%	-2.9	1.3	4.6	1
O=C(CCc1ccccc1)NCCSCc1c(F)cccc1Cl	-0.3	0.71	.	2.6	5.0	-3.1	0
O=C(O)c1cccc(N=NN2CCCCCC2)c1	-6.0	0.7	.	-0.8	6.8	-1.4	0
CC(CN1CCOCC1)OC(=O)c1cccs1 (stereo unspecified)	0.1	0.69	-3%	-4.8	-0.2	5.6	1
Cc1c(Cl)cccc1Nc1nc(NCCO)c2ccccc2n1	-0.4	0.56	.	-1.6	-15	-1.0	8
CCC(=O)Nc1cc(SCCO)cc([N+](=O)[O-])c1	0.2	0.65	24%	-0.6	2.8	-2.9	-19
Cc1cc(C)c(CN2CCN(Cc3ccc(C)o3)C(CCO)C2)c(-n2cccn2)c1 (stereo unspecified)	-0.3	0.7	.	0.4	1.2	1.2	4
CN(C)CCCNC(=O)c1cc(C(=O)c2cccc(Cl)c2Cl)c[nH]1	-0.7	0.61	-5%	2.4	4.8	2.3	-3
COCCNC(=O)C(=O)N/N=C(\C)CC(=O)Nc1ccc2c(c1)OCO2	-0.5	.	.	7.4	.	2.4	-8
COc1ccc(C(=O)N/N=C(\C)CC(=O)NC2CCCCC2)c(OC)c1	0.7	.	.	0.2	.	0.6	4
CC(C)CCNC(=O)Cc1ccc(Nc2nc(=S)[nH]c3ccccc23)cc1	-0.8	0.71	.	-1.4	2.7	2.3	13
COc1ccc(NC(=O)CN2C(=O)NC(c3ccccc3)(c3ccccc3)C2=O)cc1OC	-0.2	0.71	.	-2.0	1.5	2.0	8
CCC(=O)N1CCN(c2nc(CC)nc3sc4c(c23)CCCC4)CC1	0.5	0.6	1%	-0.5	6.0	-1.9	-5
COCCCNC(=O)CCC(=O)NNc1nc2ccccc2c2nc(C)nn12	0.7	0.69	0%	-0.7	-0.3	-3.0	6
